# NPYLR7 ag: activates Aedes aegypti NPYLR7 receptor | HEK293T NPYLR7/Galpha15, GCaMP6s calcium fluorescence | activation, % at 10 µM | 270,000 tested, 0.15% active; in the data active = activation above about 40%;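 note: 0% = vehicle and 100% = reference agonist at the receptor; some compounds past the cut are filed as inactive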
# NPYLR7 ag max-min: recorded beside NPYLR7 ag, whose call it bears; activation, %; measured here: Max-Min RFU normalised activation; some inactives read as strong as hits;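 span of the calcium signal over five minutes; 0% = vehicle and 100% = native peptide agonist; compound fluorescence can raise it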
# An asterisk follows results filed as active; & = joins results of further samples. Not all compounds are listed; the hit share may differ from the screen's.
SMILES,NPYLR7 ag,NPYLR7 ag max-min
Cc1ccc(NC(=O)N2CC(=O)N3CCc4ccc(Cl)cc4C3C2)cc1 (stereo unspecified),-9,2
COc1cc(O)ccc1-c1nccn1CCCn1nnc2ccccc21,7,3
O=C(CN1C(=O)C(=O)N(C2CCCC2)C1=O)N1CCN(C(=O)c2cccs2)CC1,-2,-1
Cc1nc(NC(=O)COc2ccccc2F)sc1C,-5,-6
Cc1ccccc1CO[C@]1(C(=O)NCC2CCCO2)CC(OCc2cccc(Cl)c2)[C@@H]2OC(C)(C)O[C@@H]2C1 (stereo partly specified),-1,-8
CC1CCCCC12NC(=O)N(CC(=O)NC(=O)NC(C)(C)C)C2=O (stereo unspecified),12,17
Cc1cc(NC(=O)C2(C)CCN2C(=O)CC2CCCC2)no1 (stereo unspecified),8,3
O=C(NC1CCCCCCC1)C1CCN(c2c(N3CCCC3)c(=O)c2=O)CC1,3,1
Oc1cccc(-c2cn(CCc3csc(-c4cccnc4)n3)nn2)c1,4,3
NC(=O)Nc1cccc(NS(=O)(=O)c2ccccc2OC(F)(F)F)c1,13,10
CCSc1nnc2c(n1)OC(c1ccc(OC)c(Br)c1)Nc1ccccc1-2 (stereo unspecified),-4,-4
CC(C)OCC(O)CN(CCN1CCOCC1)Cc1ccsc1 (stereo unspecified),2,3
CSc1ncc(CNCCc2cccs2)c(N(C)C2CCCCC2)n1,3,16
CCOc1ccc(-n2c(=O)[nH]c3c(C(N)=O)nc(C(CC)CC)nc32)cc1,10,3
CCC(C)NC(=O)COC(=O)c1cc(C)cc(C)c1 (stereo unspecified),-4,-9
COc1ccc(-n2c(NN)nc3c(c2=O)C2(CCCC2)Cc2ccccc2-3)cc1,8,7
O=c1nc(SCc2cccnc2)c2c(n1CCO)CCCC2,-12,-18
O=C(Nc1ccc(OC(F)(F)F)cc1)C(=O)Nc1ccccc1[N+](=O)[O-],-2,4
Cc1ccc(S(=O)(=O)N(CCC(C)C)Cc2c(-c3ccccc3F)noc2N2CCOCC2)cc1,-3,9
C=CCn1cc(-c2c(-c3ccccc3)ncn2CC(O)c2ccccc2)cn1 (stereo unspecified),-3,-10
NC(=O)c1cccc(CC2CCN(C(=O)C3CCS(=O)(=O)CC3)C2)c1 (stereo unspecified),10,9
Cc1ccccc1C(=O)N1CCN(C(c2ccccc2)c2ccc(Cl)cc2)CC1 (stereo unspecified),-2,8
COc1ccccc1OC1CCN(C(=O)Cn2nnnc2CN(C)C(C)C)CC1,-5,-8
CNc1ccc(-c2cc(OC)ccc2OC)cn1,4,2
c1cncc(CN(Cc2ccc3nsnc3c2)CC2CCCN(C3CCCCC3)C2)c1 (stereo unspecified),0,-5
SMILES,NPYLR7 ag,NPYLR7 ag max-min
Cc1cc[n+](C2=C(c3c(C)[nH]n(-c4ccccc4)c3=O)C(=O)N(c3cccc(Cl)c3)C2=O)cc1,-4,3
Cc1nn(CC(=O)Nc2ccon2)c(C)c1[N+](=O)[O-],-15,-9
CCCCSc1nnc2n1CCN2c1ccccc1,9,5
Cc1cc(Oc2cc(N3CCN(S(=O)(=O)c4ccccc4)C(C)C3)ncn2)ccc1Cl (stereo unspecified),-7,-4
C(=C\c1ccccc1)/CN1CCN(c2ncnc3c2cnn3-c2ccccc2)CC1,5,8
Cc1cccc(-c2cc(N)n(-c3ccc(C(=O)N(CCC#N)CCc4ccccn4)cc3)n2)c1,3,-1
COc1cccc(C2=Nc3nnnn3C(c3cccc(OC)c3OC)C2)c1 (stereo unspecified),4,3
CN1CCN(c2nc3c(c(=O)n(C)c(=O)n3C)n2CCSc2ncccn2)CC1,3,16
Cn1c(=O)c2c(SCC(=O)Nc3ccc(OC(F)(F)F)cc3)ccnc2n(C)c1=O,0,5
O=C(CCl)Nc1ccc(C2SCC(=O)N2c2ccccc2F)cc1 (stereo unspecified),37,36
CSc1ccccc1NC(=O)c1cnc2cc(C)ccn2c1=O,0,32
N#C/C(=N/Nc1ccc2[nH]c(=O)[nH]c2c1)C(=O)NCc1ccccc1,-6,-8
C#Cc1cccc(C(=O)N(CC2CCN(C3Cc4ccccc4C3)CC2)CC2CCCO2)c1 (stereo unspecified),-2,-9
Cc1ccn2cc(CNC(=O)c3nn(C)c4c3CCCC4)nc2c1,-2,-3
CC(=O)c1cccc(NS(=O)(=O)c2cccc(F)c2)c1,5,3
O=c1onc(-c2cccs2)n1Cc1cccc2c1OCCO2,-2,-13
COc1cccc(-c2cc(-c3ccc(C(=O)NCc4c(OC)cc(OC)cc4OC)cc3)[nH]n2)c1,-1,8
C=C(C)CN1CCN(c2cc(C)nc3c(-c4ccccc4OC)c(C)nn23)CC1,4,9
O=C(NCCCN1CCc2ccccc2C1)C1(c2ccc(F)cc2)CC1,5,4
O=[N+]([O-])c1cccc2ccc(C=Cc3ccc(Br)s3)nc12,11,16
O=S(=O)(/C=C/c1ccccc1)NCCc1cccc2ccccc12,0,-1
CCOC(=O)c1cc(-c2cccc(NC(=O)COc3cccc(Cl)c3)c2)n(-c2ccccc2OC)n1,18,10
COc1ccc(C(=O)N2CCCC(OCc3cccc([N+](=O)[O-])c3)C2)cc1 (stereo unspecified),-5,-4
C[C@H](N)c1ccc(Cl)c(Cl)c1Cl,8,3
CCS(=O)(=O)NCC1CCN(Cc2ccc(F)c(Cl)c2)C1 (stereo unspecified),2,-7
SMILES,NPYLR7 ag,NPYLR7 ag max-min
COc1ccc2cc(C(=O)NC(C)=O)c(=Nc3ccccc3)oc2c1,-11,-22
CC1CCCN(CCNc2ccccc2S(C)(=O)=O)C1 (stereo unspecified),11,7
CCC(=O)C1=C(c2ccc(F)cc2)N(C(=O)CC)n2c(C)nnc2S1,-1,-3
O=C(Nc1ccccc1)c1cc(C2COCCN2C(=O)CCCc2ccccc2)on1 (stereo unspecified),0,-1
CC(C)(O/N=C(/C(=O)N[C@@H]1C(=O)N2C(C(=O)O)=C(C[n+]3ccccc3)CS[C@H]12)c1csc(N)n1)C(=O)O,12,11
CCn1cncc1CNC(=O)c1cnn2cc(C)cnc12,1,-4
Cc1cc(C)n(CC(=O)N2CCCC(C(=O)c3ccc(Cl)cc3C)C2)n1 (stereo unspecified),1&10,-4&1
O=C(O)C1CCCCC1C(=O)Nc1cc(OCC(F)(F)F)cc([N+](=O)[O-])c1 (stereo unspecified),10,4
O=C(NCc1ccccc1Cn1cncn1)C1CCCC1,0,0
CC1CCc2c(sc3nc(SCC(=O)N4CCOC(C)C4)n(Cc4ccco4)c(=O)c23)C1 (stereo unspecified),-8,-12
CCOC(=O)N1CCC(NC(=O)CC2C(=O)NCCN2CCC(C)C)CC1 (stereo unspecified),-1,-2
CCN(CC)c1cc(Cl)nc(SCc2ccc(C(=O)N3CCN(C(c4ccccc4)c4ccccc4)CC3)cc2)n1,-8,-7
Cc1nnc(SCCCn2c(Br)nc3c2c(=O)[nH]c(=O)n3C)s1,10,9
Cc1c(C(=O)N2CCCC3(CCNCC3)CC2)sc2ncn(C)c(=O)c12,6,4
CCCCCC(=O)N1CCC2(CC1)C(=O)N(CC(=O)Nc1cccc(Cl)c1)CN2c1ccccc1,-7,-7
Cn1ncc2c(N3CCOC(c4ccccc4)C3)nc(-c3cccnc3)nc21 (stereo unspecified),5,4
CCn1c(C)cc(O)c(C(c2cccnc2)N2CCN(c3ccc(F)cc3)CC2)c1=O (stereo unspecified),13,8
COc1ccc(C2c3ccsc3CCN2C(=O)CN(CC(C)C)S(=O)(=O)/C=C/c2ccccc2)cc1 (stereo unspecified),29,27
COCCOc1nc(-c2ccco2)n(-c2cccc(NC(=O)CC(C)C)c2)n1,-1,6
O=C(NC1CCN(c2ccccc2C(=O)NCc2ccncc2)CC1)c1ccc(Br)cc1,-2,6
CCCCCCCC(=O)Nc1ccc(N2CCC(Cc3ccccc3)CC2)c(C(=O)NCCCOCC)c1,-1,0
COc1ccc(CNc2ccnc3c(-c4cc(C(C)C)ccc4OC)cnn23)cc1,-4,-9
Cc1ccc(-c2nnc(Nc3cccc(O)c3)c3ccccc23)cc1S(=O)(=O)N1CCN(C)CC1,-14,-21
O=C(O)CCc1cccc(Oc2ccc(F)cc2)c1,-4,2
CC(CC#N)NC(=O)c1cc(C(F)(F)F)cc(C(F)(F)F)c1 (stereo unspecified),0,-1

# Another view of some results above.
# Values in the order: NPYLR7 ag | NPYLR7 ag max-min
> Cc1ccc(NC(=O)N2CC(=O)N3CCc4ccc(Cl)cc4C3C2)cc1 (stereo unspecified)
 : -9 | 2
> COc1cc(O)ccc1-c1nccn1CCCn1nnc2ccccc21
 : 7 | 3
> O=C(CN1C(=O)C(=O)N(C2CCCC2)C1=O)N1CCN(C(=O)c2cccs2)CC1
 : -2 | -1
> Cc1nc(NC(=O)COc2ccccc2F)sc1C
 : -5 | -6
> Cc1ccccc1CO[C@]1(C(=O)NCC2CCCO2)CC(OCc2cccc(Cl)c2)[C@@H]2OC(C)(C)O[C@@H]2C1 (stereo partly specified)
 : -1 | -8
> CC1CCCCC12NC(=O)N(CC(=O)NC(=O)NC(C)(C)C)C2=O (stereo unspecified)
 : 12 | 17
> Cc1cc(NC(=O)C2(C)CCN2C(=O)CC2CCCC2)no1 (stereo unspecified)
 : 8 | 3
> O=C(NC1CCCCCCC1)C1CCN(c2c(N3CCCC3)c(=O)c2=O)CC1
 : 3 | 1
> Oc1cccc(-c2cn(CCc3csc(-c4cccnc4)n3)nn2)c1
 : 4 | 3
> NC(=O)Nc1cccc(NS(=O)(=O)c2ccccc2OC(F)(F)F)c1
 : 13 | 10
> CCSc1nnc2c(n1)OC(c1ccc(OC)c(Br)c1)Nc1ccccc1-2 (stereo unspecified)
 : -4 | -4
> CC(C)OCC(O)CN(CCN1CCOCC1)Cc1ccsc1 (stereo unspecified)
 : 2 | 3
> CSc1ncc(CNCCc2cccs2)c(N(C)C2CCCCC2)n1
 : 3 | 16
> CCOc1ccc(-n2c(=O)[nH]c3c(C(N)=O)nc(C(CC)CC)nc32)cc1
 : 10 | 3
> CCC(C)NC(=O)COC(=O)c1cc(C)cc(C)c1 (stereo unspecified)
 : -4 | -9
> COc1ccc(-n2c(NN)nc3c(c2=O)C2(CCCC2)Cc2ccccc2-3)cc1
 : 8 | 7
> O=c1nc(SCc2cccnc2)c2c(n1CCO)CCCC2
 : -12 | -18
> O=C(Nc1ccc(OC(F)(F)F)cc1)C(=O)Nc1ccccc1[N+](=O)[O-]
 : -2 | 4
> Cc1ccc(S(=O)(=O)N(CCC(C)C)Cc2c(-c3ccccc3F)noc2N2CCOCC2)cc1
 : -3 | 9
> C=CCn1cc(-c2c(-c3ccccc3)ncn2CC(O)c2ccccc2)cn1 (stereo unspecified)
 : -3 | -10
> NC(=O)c1cccc(CC2CCN(C(=O)C3CCS(=O)(=O)CC3)C2)c1 (stereo unspecified)
 : 10 | 9
> Cc1ccccc1C(=O)N1CCN(C(c2ccccc2)c2ccc(Cl)cc2)CC1 (stereo unspecified)
 : -2 | 8
> COc1ccccc1OC1CCN(C(=O)Cn2nnnc2CN(C)C(C)C)CC1
 : -5 | -8
> CNc1ccc(-c2cc(OC)ccc2OC)cn1
 : 4 | 2
> c1cncc(CN(Cc2ccc3nsnc3c2)CC2CCCN(C3CCCCC3)C2)c1 (stereo unspecified)
 : 0 | -5
> Cc1cc[n+](C2=C(c3c(C)[nH]n(-c4ccccc4)c3=O)C(=O)N(c3cccc(Cl)c3)C2=O)cc1
 : -4 | 3
> Cc1nn(CC(=O)Nc2ccon2)c(C)c1[N+](=O)[O-]
 : -15 | -9
> CCCCSc1nnc2n1CCN2c1ccccc1
 : 9 | 5
> Cc1cc(Oc2cc(N3CCN(S(=O)(=O)c4ccccc4)C(C)C3)ncn2)ccc1Cl (stereo unspecified)
 : -7 | -4

# Profiles as entered above. Order of values: NPYLR7 ag, NPYLR7 ag max-min
# CC(CC#N)NC(=O)c1cc(C(F)(F)F)cc(C(F)(F)F)c1 (stereo unspecified) across the screens: 0, -1
# CC(C)(O/N=C(/C(=O)N[C@@H]1C(=O)N2C(C(=O)O)=C(C[n+]3ccccc3)CS[C@H]12)c1csc(N)n1)C(=O)O across the screens: 12, 11

# Next part
SMILES,NPYLR7 ag,NPYLR7 ag max-min
Cc1ccn2c(NC(=O)CCc3ccccc3)c(-c3ccccc3C)nc2c1,-5,2
CCCCN(C)c1c(CC)nc2ccc(C(=O)NCc3cccs3)cn12,-7,-14
Cc1ccccc1S(=O)(=O)N1CCC(Cc2ccc(-c3ccccc3)cc2)CC1,6,7
Cc1ccc(OCC2CCCN(Cc3cc(C#CCO)cs3)C2)cc1 (stereo unspecified),0,-1
OC1CCN(Cc2cc(Br)ccc2Cl)CC1,5&7,0&3
Cc1c(C(=O)NCC(C)(C)CN(C)C)cnc2c(-c3ccc(F)cc3)cnn12,-9,-10
Cc1ccc(S(=O)(=O)Nc2ccc(-n3nc(OCC(C)C)nc3-c3ccc(C(F)(F)F)cc3)cc2)cc1,-6,10
COc1ccc(N2CCN(C(=O)c3ccccc3OC)C(C)C2=O)c(OC)c1 (stereo unspecified),7,4
COCCN1C(=O)CCC2(CCC(=O)NC2)C1=O (stereo unspecified),-3,-7
COC(=O)c1ccc(CNC(=O)Cc2csc(C(C)=O)c2)cc1,-5,-6
Cc1cc(=O)c(C(=O)NCC(=O)Nc2ccccc2Br)nn1-c1ccccc1[N+](=O)[O-],12,16
COc1cc(C(=O)NC2CCc3ccccc32)ccc1OC(F)F (stereo unspecified),-2,-4
Fc1cccc(OCCN2CCCC(C3OCCO3)C2)c1 (stereo unspecified),8,5
COc1cc(OC)cc(C(=O)NCc2cccc(-c3ncc(-c4ccccc4)[nH]3)c2)c1,2,-1
Cc1cccc(NC(N)=Nc2nc3c(c(=O)[nH]2)CCCC3)c1,-1,-1

# Compound activity deposited in PubChem BioAssay by Fisher Drug Discovery Resource Center.
